AmpC inh no det: AmpC beta-lactamase inhibition, detergent-free assay; AmpC nitrocefin hydrolysis, absorbance 480 nm, no detergent; potencies from a single point are estimates; P00811; 71,000 compounds, 1.8% hits; Potency, µM (highest dose often 28.7 µM), inactives show at the top dose activity change, negative = inhibition; active = falling curve, for most hits resting on a single point; inconclusive = weak or doubtful change; inactive = flat or rising curve; note: % of control where 0% means no effect; about half of the hits show no inhibition at the top dose; a quarter of the inactives give rising signals
Target sequence (P00811 whole entry, looked up): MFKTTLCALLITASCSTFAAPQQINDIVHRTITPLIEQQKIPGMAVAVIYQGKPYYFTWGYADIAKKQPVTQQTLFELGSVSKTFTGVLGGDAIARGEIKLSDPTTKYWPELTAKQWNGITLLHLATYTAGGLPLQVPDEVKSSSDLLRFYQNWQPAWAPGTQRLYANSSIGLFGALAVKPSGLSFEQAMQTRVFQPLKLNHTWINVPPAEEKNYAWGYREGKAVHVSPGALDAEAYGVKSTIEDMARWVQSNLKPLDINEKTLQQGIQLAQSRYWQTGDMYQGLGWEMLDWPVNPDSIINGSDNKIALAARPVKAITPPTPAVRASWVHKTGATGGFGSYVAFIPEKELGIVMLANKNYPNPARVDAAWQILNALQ
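AmpC, 20 mM phosphate pH 7.0; 15 min cpd preinc, RT; start with nitrocefin (800 uM stock); A480 kinetic read, 20 s intervals, 4 min. No-enzyme wells = negative control.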
Active calls of the source: *; ? = inconclusive; & = joins results of further samples; [ ] = another dose, or the depositor's remark. Potency is the fitted concentration of half-maximal effect. The list is partial, so the mix of outcomes need not match the whole.

Sample of the layout, five compounds:
canonical_smiles	AmpC inh no det
Cc1ccc2oc(-c3ccc(NC(=O)CC(C)C)cc3)nc2c1	-7%
CCCCN(CC)CCNS(=O)(=O)c1cccc2cccnc12	4%
N#CCn1c(C2CCCCC2)nc2ccccc2c1=O	19%
Cc1cnc(NC(=O)CN2CCN(c3ccccn3)CC2)s1	-7%
CNC(=O)CCC(=O)Nc1ccc(C(=O)OC)cc1	-6%

Results, repeating the preview:
canonical_smiles	AmpC inh no det
Cc1ccc2oc(-c3ccc(NC(=O)CC(C)C)cc3)nc2c1	-7%
CCCCN(CC)CCNS(=O)(=O)c1cccc2cccnc12	4%
N#CCn1c(C2CCCCC2)nc2ccccc2c1=O	19%
Cc1cnc(NC(=O)CN2CCN(c3ccccn3)CC2)s1	-7%
CNC(=O)CCC(=O)Nc1ccc(C(=O)OC)cc1	-6%
O=C(NCc1cccnc1)c1cccc(C(F)(F)F)c1	16%
CC1(C)Cc2noc(N)c2C(C)(C)N1OC(=O)c1scc2c1OCCO2	28%
O=C(Cn1[nH]c(=O)c2ccccc2c1=O)Nc1cccc(-c2nnc3n2CCCCC3)c1	14%
N#CC(C#SN)=C1CCCCC1	-7%
CCOC(=O)N1CC=C2C(C#N)=C(N)C(C#N)(C#N)[C@H](c3ccccc3OCC)[C@H]2C1	12%
CN1CCN(C2=C(Cl)C(=O)N(c3cccc(Cl)c3)C2=O)CC1	-13%
CC[C@@H](C)[C@H]1O[C@]2(CC[C@@H]1C)C[C@@H]1C[C@H](C/C=C(/C)[C@H](O[C@@H]3C[C@H](OC)[C@H](O[C@@H]4C[C@H](OC)[C@@H](O)[C@H](C)O4)[C@H](C)O3)[C@@H](C)/C=C\C=C3CO[C@@H]4[C@H](O)C(C)=C[C@@H](C(=O)O1)[C@]34O)O2 (tested in a mixture with another compound)	136%
N#Cc1nc(COc2ccc(Br)cc2)oc1NCCCn1ccnc1	73%
COc1ccc(Nc2nccc3c2nnn3C)cc1	-8%
CCCc1cc(C(=O)Nc2cc(C)nn2-c2ccccc2)no1	?
Cc1nc(NC(C)c2ccccc2)c2oc3ccccc3c2n1 (stereo unspecified)	77%
COc1cc(NS(=O)(=O)c2ccc(NC(=O)COc3ccccc3C)cc2)nc(OC)n1	13µM*[single pt active]
N[C@@H]1C=CC=C(C(=O)O)C1	13%
Cn1ccnc1SC(=O)N1c2ccccc2Sc2ccccc21	40%
CCCCn1c(SCC(=O)N2CCC(C(=O)OCC)CC2)nc2cc(S(N)(=O)=O)ccc21	50%
CCOC(=O)c1ccc(Cn2cnc3ccccc3c2=O)cc1	31%
CC1(C)CC(=O)C2=C(C1)Nc1[nH]n(-c3ccccc3)c(=O)c1C2c1ccc2c(c1)OCO2 (stereo unspecified)	-6%
CCn1c(SCC(=O)c2cccs2)nnc1-c1ccco1	17%
CC(C)(C)OCC1CO1 (stereo unspecified)	0%
OC(COc1c(Cl)cc(Cl)cc1Cl)CN1CCCCC1 (stereo unspecified)	5%
O=C(Nc1ccc2c(c1)C(=O)N(C1CCCCC1)C2=O)C1CCCO1 (stereo unspecified)	58%
O=C(O)C1CCCCC1C(=O)OCCCCOC(=O)C1CCCCC1C(=O)O (stereo unspecified)	-7%
O=C(Nc1nc2ccccc2n1CCN1CCCCC1)c1ccco1	4%
Cc1cc(NC(=O)CCCC(=O)N(CC(=O)NC2CCCCC2)c2ccccc2)no1	75%
CCC(=O)Nc1ccc(C(=O)Cn2nc(C(=O)O)c3ccccc3c2=O)cc1	3%
COc1nnc(OC)c2ccccc12	-1%
O=C(C1CCC(=O)N1Cc1cccnc1)N1CCN(c2ccc(F)cc2)CC1 (stereo unspecified)	13%
COc1cccc(Cn2c(=S)[nH]c3ccc(N4CCOCC4)cc3c2=O)c1	27%
CCCS(=O)(=O)NCCc1cc2c(OC)ccc(OC)c2[nH]c1=O	6%
CCN(CC)S(=O)(=O)c1cccc(-c2nnc(SCC(=O)c3cc(C)n(C)c3C)o2)c1	74%
Cc1ccccc1C(=O)NC1CC(C)(C)NC(C)(C)C1	-3%
c1ccc2c(-n3cccn3)cccc2c1	-9%
Cc1oc(-c2ccc(Cl)cc2)nc1CN1CCC(C(=O)NCc2cccnc2)CC1	87%
COC(=O)c1cc(OC)c(OC)cc1NC(=O)C1CCC(=O)N1S(=O)(=O)c1ccc(C)cc1 (stereo unspecified)	120%
COc1ccc(CC(=O)OCC(=O)Nc2c(C)n(C)n(-c3ccccc3)c2=O)cc1	14%
O=C(CSc1nc2c(sc3ccccc32)c(=O)n1Cc1ccco1)NCC1CCCO1 (stereo unspecified)	33%
Cc1cc2cc(CNC(=O)CC(C)C)ccc2n1C	4%
CC(C)(C)OC(=O)NCCc1nnc(SCC(N)=O)o1	-5%
Cc1nc(NC(=O)c2oc3ccccc3c2C)sc1C(=O)N(C)C	103%
CC(=O)c1cc(C(=O)Nc2ccccc2C(=O)O)oc1C	-7%
O=C(Nc1ccc2c(c1)OCCO2)c1ccc(S(=O)(=O)N2CCCCC2)cc1	-19%
Cc1c(NC(=O)CSc2nc3ccccc3[nH]2)c(=O)n(-c2ccccc2)n1C	4%
Cc1noc(C)c1COC(=O)CCc1nc2ccccc2c(=O)[nH]1	-3%
O=C(NCCN1CCOCC1)c1nn2c(c1Cl)NC(c1ccccc1)CC2C(F)(F)F (stereo unspecified)	84%
COc1ccccc1NC(=O)C1=C(C)Nc2nnnn2C1c1cccc(C)c1 (stereo unspecified)	28%
COc1ccc(Cl)cc1NC(=O)CSc1nnc(COc2ccccc2)n1C	123%
CCS(=O)(=O)Nc1ccc(C(=O)OC)cc1	-2%
Cc1ccc(-c2cc(-c3cccc(F)c3)n[nH]2)c(O)c1	-4%
CCOc1ccc2nc(NCCNC(=O)C3CC3)c(C)cc2c1	28%
Cn1c(=O)c2c(nc(-n3ccnc3)n2C)n(C)c1=O	-9%
CCN(CC)C(=O)CSc1nc2ccccc2c(=O)n1CCC(=O)NCc1ccc(F)cc1	69%
COCCn1c(Cc2ccccc2)nnc1SCC(=O)NC(C)C	14%
O=S(=O)(c1cccc(S(=O)(=O)N2CCCC2)c1)c1cccc(S(=O)(=O)N2CCCC2)c1	18%
O=C(CCCn1c(=O)[nH]c2cc(Cl)ccc2c1=O)NCC1CCCO1 (stereo unspecified)	9%
Cc1cc(C)c2c(=O)[nH]c(SCC(=O)Nc3ccccc3)nc2n1	-4%

A different layout for 2 compounds above.
> CCS(=O)(=O)Nc1ccc(C(=O)OC)cc1
- AmpC inh no det: -2%
> Cn1c(=O)c2c(nc(-n3ccnc3)n2C)n(C)c1=O
- AmpC inh no det: -9%

Further entries.
canonical_smiles	AmpC inh no det
COc1ncc2nc(-c3cn(C)c4ccccc34)c(=O)n(CCC#N)c2n1	27%
Cc1ccc(NC(=O)c2cc(S(=O)(=O)N3CCOCC3)ccc2F)c(C)c1	65%
CCOC(=O)c1cnn2c(N)c(C#N)nnc12	-1%
CCOC(=O)c1[nH]c(=O)c2ccccc2c1O	3%
Cc1cc(N2CCN(c3ccccc3F)CC2)nc2cc(O)ccc12	-8%
C[N+]1(C)CCC(OC(=O)C(c2ccccc2)c2ccccc2)CC1	19%&40%
O=C(NCc1ccc2c(c1)OCO2)C1CCC(CNS(=O)(=O)c2ccccc2)CC1 (stereo unspecified)	14%
CC(NC(=O)c1ccc(F)cc1)C(c1cccs1)N1CCN(C)CC1 (stereo unspecified)	1%
O=C(NC1CCCCCC1)C1CCCN(S(=O)(=O)c2cnc[nH]2)C1 (stereo unspecified)	-1%
CCCn1c2c(c(O)c(C(=O)Nc3ccc(C)cn3)c1=O)CCCC2	41%
Cc1cc(C)n2nc(SCC3COc4ccccc4O3)nc2n1 (stereo unspecified)	44%
COCCN1C(=O)C(O)=C(C(=O)c2ccco2)C1c1cccc(Oc2ccccc2)c1 (stereo unspecified)	-9%
CN(Cc1ccco1)c1nc(-c2ccc3c(c2)OCO3)nc2ccccc12	12%
CCCc1cc2c(=O)c(-c3ccccn3)coc2cc1OC	24%
COCCCNC(=O)c1ccc(N(C)S(=O)(=O)c2ccc(OC)cc2)cc1	37%
O=C(c1ccc(NS(=O)(=O)c2ccccc2)cc1)N1CCCC1	-8%
Cc1cc2c(c(N)n1)c(=O)oc1ccccc12	14%
O=C(Cc1c(C(=O)O)[nH]c2ccccc12)Nc1ccc2c(c1)OCO2	?
C=CCSc1nnc(NC(=O)c2ccc(S(=O)(=O)NCC3CCCO3)cc2)s1 (stereo unspecified)	7%
COc1ccccc1-c1nccc(NCc2cccc(C)c2)n1	71%
O=C1C2C3C=CC(CO)(O3)C2C(=O)N1c1ccc(-c2ccccc2)cc1 (stereo unspecified)	3%
COC(=O)c1cc(C(=O)OC)cc(N2C(=O)CN=C2Nc2nc(C)cc(C)n2)c1	29%
O=C1CCCC/C1=C\Nc1ccc(O)cc1	-8%
CCOC(=O)c1cnc(Nc2nc3ccccc3o2)nc1CSc1ncccn1	83%

Next part
structure	AmpC inh no det
CC(C)NC(=O)C1CC(=O)N(c2ccc(F)c(Cl)c2)C1 (stereo unspecified)	3%
COc1ccc(N/C=C2\CCOC2=O)cc1	-2%
Cn1cnnc1SCC(=O)NCc1cccc(C(F)(F)F)c1	14%
CSc1nc2c(c(=O)[nH]1)C(c1ccncc1)C(C(=O)OC(C)C)=C(C)N2 (stereo unspecified)	-11%
CC(=O)c1cccc(NC(=O)CCOc2ccccc2)c1	-4%
CN1CCCN(C(=O)Cc2c(Cl)cccc2Cl)c2nc3ccccc3nc21	82%
Cc1ccc(-n2c(SCc3cc(=O)n4ccsc4n3)nnc2-c2cccnc2)c(C)c1	38%
CC(C)N=C=NC(C)C	-2%
CC1=C2[C@H](/C=C(\C)C(=O)O)CC[C@@H](C)[C@H]2CC1	-2%
CCc1nnc(NC(=O)c2ccc(S(=O)(=O)NCC(C)C)cc2)s1	-12%
COCCNC(=O)c1cc(-c2ccccc2OC)on1	18%
CC(=O)OCCNC(=O)Cn1cnc2c1c(=O)n(C)c(=O)n2C	-7%
CC(C)(C)C1CCc2c(sc(N)c2C(N)=O)C1 (stereo unspecified)	-9%
Cc1ccc2oc(-c3ccccc3C(=O)O)cc(=O)c2c1	-5%
O=C(CN1CC=C(c2ccccc2)CC1)NC(=O)NCc1ccco1	28%
Cn1cc(-c2nc3cnc(N4CCNCC4)nc3n(-c3ccccc3)c2=O)c2ccccc21	48%
O=C(Nc1nnc(C2CCCC2)s1)C1CCN(S(=O)(=O)c2ccc(Cl)cc2)CC1	-14%
CC(C)NC(=O)CSc1nnc2sc3ccccc3n12	2%
CC12CCCCC1(O)[N+](=O)C1=C(CCCC1)N2[O-] (stereo unspecified)	-4%
CCOc1ccccc1C(=O)NCC(=O)OCC(=O)N1C(C)CCCC1C (stereo unspecified)	33%
Cc1ccc(-c2cc(C(=O)NCc3cccnc3)no2)cc1	-3%
COc1ccc(C2C(C(=O)NCCN3CCOCC3)c3ccccc3C(=O)N2C2CCCCC2)cc1 (stereo unspecified)	120%
CC1(C)[C@@H](O)CC[C@@]2(C)[C@H]1CC[C@]1(C)[C@H]2C(=O)C=C2[C@@H]3C[C@@](C)(C(=O)O)CC[C@]3(C)CC[C@@]21C	-5%
Cn1nnnc1SCC(=O)N1CCc2ccccc2C1	6%
Cc1ccc(C2(O)CC(C)N(C)CC2C)cc1 (stereo unspecified)	-8%
Cc1nnc(SCc2ccc(Cl)cc2Cl)[nH]c1=O	-12%
COc1ccc(NC(C)=O)cc1NC(=O)CSc1nnc(-c2ccncc2)n1C	-9%
CCOc1cc(-c2noc(-c3ccncc3)n2)cc(Br)c1OC	63%
CCn1cc(Br)c(C(=O)Nc2ccc(OC)cc2)n1	11%
CC1(C)COCN1S(=O)(=O)c1ccc(C(=O)Nc2nnc(-c3ccc(Cl)s3)o2)cc1	-13%
O=S(=O)(NC1CCCCC1NCc1ccco1)c1ccccc1 (stereo unspecified)	-10%
COCCCNC(=O)CN(C1CCCCC1)S(=O)(=O)c1ccc(C)cc1	107%
O=c1cc(CO)oc(C(Nc2ccccn2)c2ccc(C(F)(F)F)cc2)c1O (stereo unspecified)	13%
Cn1c(=O)c2c(nc(SCCCC#N)n2Cc2c(F)cccc2Cl)n(C)c1=O	101%
Cc1ccnc(NC(=O)C23CC4CC(CC(C4)C2)C3)c1	0%
Cn1nnnc1SCC(=O)Nc1ccc(Oc2ccc(Cl)cc2)cc1	-10%
CCOC(=O)c1ccccc1NC(=O)CSc1nc2c(c(=O)n(C)c(=O)n2C)n1C	15%
COc1ccc(C(=O)Nc2cc(OC)ccc2OC)cc1	21%
Cn1ncc2c(NCCc3ccccc3)nc(Cl)nc21	9%[5.75 µM]

Five entries picked at random from those above:
structure	AmpC inh no det
COc1cccc(Cn2c(=S)[nH]c3ccc(N4CCOCC4)cc3c2=O)c1	27%
CC1(C)CC(=O)C2=C(C1)Nc1[nH]n(-c3ccccc3)c(=O)c1C2c1ccc2c(c1)OCO2 (stereo unspecified)	-6%
Cn1ncc2c(NCCc3ccccc3)nc(Cl)nc21	9%[5.75 µM]
COc1ccc(C2C(C(=O)NCCN3CCOCC3)c3ccccc3C(=O)N2C2CCCCC2)cc1 (stereo unspecified)	120%
Cc1c(NC(=O)CSc2nc3ccccc3[nH]2)c(=O)n(-c2ccccc2)n1C	4%

High-throughput results deposited in PubChem BioAssay by National Center for Advancing Translational Sciences (NCATS).
